# From PubChem
# Sa growth 42C = S. aureus growth inhibition at 42 and 30 °C, primary screen, LtaS inhibitor project, RN4220, two temperatures | OD600, 20 h, 42 °C; active compounds read low | relative growth, % (test concentration not listed) | actives 0.53% (n = 170,000) | AID 720641, 2013;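 active means growth at 42 °C up to 50% and 20 or more points under that at 30 °C, or under 10% at both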;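 further: 300 nL library stock went into each well; scaled to the means of positive and negative controls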
# GIV Gai3 FP = inhibitors of GIV peptide binding to Galpha-i3, primary screen, biochemical, fluorescence polarization, FITC-GIV GBA peptide, rat Galphai3 | percent of control (FP), % (no concentration beside the values) | Guanine nucleotide-binding protein G(i) subunit alpha-3 (Rattus norvegicus), P08753 | 90 min; active compounds read low; scaled: aluminum fluoride 0%, vehicle 100% | actives 0.42% (n = 210,000);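 active means replicate mean at 85% of control or lower, very high polarization wells dropped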;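 further: wells of about 15 µL received 100 nL stock; the first replicate is given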
# Target sequence (P08753 whole entry, looked up): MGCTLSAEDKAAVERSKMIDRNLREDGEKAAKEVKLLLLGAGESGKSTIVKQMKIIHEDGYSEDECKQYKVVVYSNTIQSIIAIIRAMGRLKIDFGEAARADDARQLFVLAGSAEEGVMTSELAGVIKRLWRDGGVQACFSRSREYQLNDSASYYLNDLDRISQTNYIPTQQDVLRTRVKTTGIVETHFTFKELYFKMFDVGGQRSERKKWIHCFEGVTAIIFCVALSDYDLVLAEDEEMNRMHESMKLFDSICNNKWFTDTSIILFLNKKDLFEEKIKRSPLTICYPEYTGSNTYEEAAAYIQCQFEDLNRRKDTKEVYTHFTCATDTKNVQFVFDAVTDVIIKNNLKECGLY
# HCMV NEC inh = inhibitors of HCMV UL50-UL53 interaction, biochemical, HTRF. HCMV UL50-UL53 nuclear egress complex (human cytomegalovirus). normalized percent inhibition. inhibition, % (no concentration beside the values). actives 0.15% (n = 190,000). AID 1918969, 2023;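 active means both replicates at 50% or more, plus weaker picks with an unusually low signal ratio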;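 further: stock transfer was 100 nL into about 20 µL; 0% = negative control wells and 100% = wells with untagged competitor protein; inactives centre near -12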
# Sa growth 42C second temp = also measured in Sa growth 42C; calls as there; relative growth, %; measured here: growth at 30 °C;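 optical density after 20 h as mean of two plates; 100% = untreated growth and lower means inhibition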
# Active calls of the source: *; nt = not tested or not shown; & = joins results of further samples. Compounds as they come. Share with any hit: about 0.83%.
# Values run as follows: Sa growth 42C	Sa growth 42C second temp	GIV Gai3 FP	HCMV NEC inh
> Cc1sc2ncnc(Nc3cccc(Cl)c3)c2c1S(=O)(=O)N1CCCCC1
 : nt	nt	101.9	-12.7
> CC(C)Cn1c(=O)c2cc3c(=O)n(CC(C)C)c(=O)c3c(C(=O)c3ccc(Cl)cc3)c2c1=O
 : 84.7	82.6	101.4	nt
> Cc1cc(C=NCCO)c(C)n1-c1cc(Cl)ccc1Cl
 : 99.7	102.3	nt	-13.5
> O=C(COC(=O)c1sc2ccccc2c1Cl)Nc1ccccc1
 : 104.1	102.5	nt	5.2
> NC(=S)N1N=C(c2ccc(Cl)cc2)CC1c1ccco1 (stereo not given)
 : 85.7	95.8	nt	-1.9
> Cc1ccc(O)c(C(=O)/C=C(\N)C(F)(F)F)c1
 : 111.5	111.0	103.4	-15.4
> CSc1nnc(CCNC(=O)N(c2ccccc2)c2ccccc2)n1C
 : 89.4	79.5	98.9	-7.0
> CCOc1ccccc1C(=O)NCc1ccc(OC)c(C(=O)OC)c1
 : 84.4	90.8	nt	-16.4
> CC(C)Cn1c(Cc2ccccc2)nc2ccccc21
 : 123.9	92.5	nt	6.2
> Cc1ccccc1CNC(=O)C1CCN(c2nn3cc(-c4ccc(F)cc4)nc3s2)CC1
 : 101.7	92.1	100.4	nt
> NC(=O)c1ccc(C(F)(F)F)o1
 : 92.2	84.6	102.4	-0.4
> CC(=O)Nc1ccccc1C#N
 : 129.9	94.9	104.5	-28.8
> COc1ccc(NC(=O)C2CCN(c3ccc(S(=O)(=O)c4ccc(C)cc4)nn3)CC2)cc1Cl
 : nt	nt	107.7	-0.1
> O=C(c1ccc([N+](=O)[O-])cc1)N1N=C(c2ccccc2)CC1(O)C(F)(F)F (stereo not given)
 : nt	nt	106.6	-4.4
> CC(C#N)Sc1nnc(-c2ccco2)n1C1CCCCC1 (stereo not given)
 : 72.9	93.2	nt	-24.0

# The last two records of the section above come first, to join the parts.
# Values run as follows: Sa growth 42C	Sa growth 42C second temp	GIV Gai3 FP	HCMV NEC inh
> O=C(c1ccc([N+](=O)[O-])cc1)N1N=C(c2ccccc2)CC1(O)C(F)(F)F (stereo not given)
 : nt	nt	106.6	-4.4
> CC(C#N)Sc1nnc(-c2ccco2)n1C1CCCCC1 (stereo not given)
 : 72.9	93.2	nt	-24.0
> C/C=C(/C(=O)O)c1ccccc1
 : 93.1	96.3	97.6	-1.6
> CCCCN(Cc1ccccc1)C(=O)C1CCN(Cc2cccc(O)c2)CC1
 : 115.5	87.4	nt	-0.7
> Fc1ccccc1-c1nn2c(CSc3ccccc3)nnc2s1
 : nt	nt	108.4	-22.5
> Nc1ccccc1NCCc1ccccc1
 : 9.1*	14.3*	nt	-11.2
> Cc1sc(-c2ccccc2)nc1CC(=O)NN
 : 105.0	92.6	106.0	-20.5
> CCN(CC)CCOC(=O)C1(C2CCCCC2)CCCCC1
 : 96.3	89.8	104.7	-6.6&-21.9&-17.4&-40.8&-16.3
> O=C(O)c1ccccc1C(=O)Nc1cc(-c2ccccc2)[nH]n1
 : 81.9	80.2	98.5	-17.5
> O=S(=O)(c1ccc(F)cc1)N1CCN=C1N1CCN(c2ccc(F)cc2)CC1
 : nt	nt	104.4	-18.0
> CCOc1ccc(Oc2nc(C)nc3sc(C)c(C)c23)cc1
 : nt	nt	106.0	-31.9
> OC(COc1cccc2ccccc12)CN1CCOCC1 (stereo not given)
 : 106.5	103.0	94.3	-8.9
> O=C1NCCNC1CC(=O)N1CCN(c2ccccc2)CC1 (stereo not given)
 : 107.9	93.1	110.3	-14.3
> Cc1noc(C)c1/C=C/C(=O)Nc1ccccc1C(C)(C)C
 : 112.9	94.5	nt	-4.2
> O=C(NCCc1ccccc1Cl)C1CCN(c2nc3ccccc3nc2C(F)(F)F)CC1
 : 85.7	97.5	99.1	nt
> O=C1CCCc2[nH]c(=O)c(C(=O)Nc3ccccc3)cc21
 : nt	nt	104.9	-16.6
> CCCN=C1NC(=O)C(CC(=O)Nc2ccccc2Cl)S1 (stereo not given)
 : 94.5	94.6	nt	-6.8
> Cn1c(N)c(C(=S)NC(=O)C(C)(C)C)c(=O)[nH]c1=O
 : 89.9	77.3	nt	23.5
> Cc1c(C(=O)Nc2ccc(F)cc2)sc2nc3n(c(=O)c12)CCCCC3
 : nt	nt	107.5	-6.1
> CCCN(CCC)S(=O)(=O)c1ccc(N)cc1
 : 111.2	91.8	103.8	-12.4
> Cc1nc2cc(-c3ccccc3)nn2c(C)c1CC(=O)O
 : 107.1	87.7	102.9	-23.5
> Cc1c(CC(=O)O)c(=O)oc2cc3oc4c(c3cc12)CCCC4
 : 110.7	92.7	92.8	nt
> O=C1/C(=C\c2cccnc2)SC(=S)N1C1CCS(=O)(=O)C1 (stereo not given)
 : 96.7	83.0	88.6	-31.6
> Cc1cc2occ(CC(=O)OCC(=O)Nc3sccc3C#N)c2cc1C
 : 91.3	91.5	nt	-20.0
> COc1ccc(-c2c(N)n[nH]c2-c2ccccc2)cc1OC
 : 141.4	66.2	97.5	-0.1
> O=C(N1CCCCC1)N1c2ccccc2C=Cc2ccccc21
 : 84.4	96.3	93.3	-27.6
> O=C(NCCN1CCOCC1)c1nn2c(C(F)(F)F)cc(-c3ccccc3)nc2c1Br
 : nt	nt	104.9	4.3
> COC(=O)c1ccsc1NC(=O)CS(=O)(=O)c1ccccc1
 : 108.7	91.4	102.0	-17.5
> COc1cc2ccccc2cc1C(=O)Nc1cccc(-c2nc3cc(C)c(C)cc3o2)c1C
 : 98.2	86.3	102.0	-16.1
> Cc1cc(C)n(C(=O)c2cccc(S(=O)(=O)N3CCCC3)c2)n1
 : 99.0	95.6	101.9	-19.9
> COc1ccccc1C1CC(=O)Nc2nc(N)[nH]c(=O)c21 (stereo not given)
 : nt	nt	95.2	6.9
> O=C(CSc1nnnn1-c1ccccc1)Nc1ccc(S(=O)(=O)Nc2nccs2)cc1
 : 84.4	82.7	100.7	-21.6

# Full records as entered above. Screens in order: Sa growth 42C	Sa growth 42C second temp	GIV Gai3 FP	HCMV NEC inh
# Results for COc1ccccc1C1CC(=O)Nc2nc(N)[nH]c(=O)c21 (stereo not given) → nt	nt	95.2	6.9
# Results for Cc1nc2cc(-c3ccccc3)nn2c(C)c1CC(=O)O → 107.1	87.7	102.9	-23.5
# Results for CC(C)Cn1c(=O)c2cc3c(=O)n(CC(C)C)c(=O)c3c(C(=O)c3ccc(Cl)cc3)c2c1=O → 84.7	82.6	101.4	nt
# Results for CCOc1ccccc1C(=O)NCc1ccc(OC)c(C(=O)OC)c1 → 84.4	90.8	nt	-16.4
# Results for O=C(COC(=O)c1sc2ccccc2c1Cl)Nc1ccccc1 → 104.1	102.5	nt	5.2

# The list goes on.
# Values run as follows: Sa growth 42C	Sa growth 42C second temp	GIV Gai3 FP	HCMV NEC inh
> CC(C)c1cc(NCC2CCCO2)n2nc(-c3cccnc3)nc2n1 (stereo not given)
 : nt	nt	102.2	-6.7
> Cc1nc(-c2ccc(NC(=O)c3ccc(C(F)(F)F)nc3C)cc2)cs1
 : 96.2	91.9	100.4	-13.4
> O=C(c1cc2c(s1)-c1ccccc1SC2)N1CCCC1
 : 104.9	101.6	106.5	-29.3
> O=c1oc2ccccc2n1Cc1ccccc1Cl
 : 96.0	88.4	nt	-8.5
> CCOC(=O)c1nn(-c2ccccc2)c(=O)c2c(N)c(C#N)c(-c3ccco3)cc12
 : 86.3	62.3	134.6	-34.8
> CNC(=O)Cc1ccc(-n2c(=O)c3ccccc3n(CC(=O)Nc3cccc(Cl)c3)c2=O)cc1
 : nt	nt	101.1	-21.3
> COc1ccc(Cc2nc3ccccc3n2Cc2ccccc2F)cc1
 : 85.1	64.4	98.8	-14.8
> CC(C)C1CC(CCN)(Cc2ccccc2)CCO1 (stereo not given)
 : 95.5	102.5	nt	4.8
> CC(C)Cn1c(SCc2nnc(-c3ccccc3)o2)nnc1-c1ccccc1F
 : 91.2	86.5	nt	-9.4
> c1ccc(Oc2cccc(Oc3ccccc3)c2)cc1
 : 69.6	102.7	95.3	nt
> NC1=NC(=O)/C(=C\c2ccc(F)cc2)S1
 : 81.7	81.7	nt	-7.0
> O=C(Cc1ccccc1)NC1CCN(C(=O)c2cccs2)CC1
 : 101.6	84.2	102.4	-48.3
> N=C(N)N=Nc1c(O)[nH]c2ccccc12
 : 89.8	85.9	104.3	-95.9
> Cc1cc(Nc2nc(C(=O)NCC3CCCO3)cc3occc23)ccc1Br (stereo not given)
 : nt	nt	100.4	-14.2
> CCN(CC)C(=O)Nc1c(C)cc(C)cc1C
 : 102.4	109.0	105.0	4.3
> C#CCN1C(=O)C(O)(CC(=O)c2ccccc2)c2ccccc21 (stereo not given)
 : 91.1	92.6	99.2	-22.4
> COc1ccc(N2CCN(S(=O)(=O)c3ccc(-c4ccno4)cc3OC)CC2)cc1
 : 104.9	101.1	110.6	nt
> CC(C)(C)Sc1ccc(C(=O)O)s1
 : 90.7	66.0	94.5	-8.9
> Cc1cccc(Oc2ccc(NC(=O)C3CCC(C)CC3)cc2)c1 (stereo not given)
 : 103.8	94.2	100.1	nt
> NC(=S)N1CCCC1
 : 93.8	91.2	nt	-23.2
> O=C(CCn1c2c(c3ccccc31)CCCC2)Nc1cccc2nsnc12
 : nt	nt	104.8	-7.0
> CN(Cc1ccccc1)C(=O)COC(=O)c1ccccc1O
 : 95.9	87.2	nt	-40.8
> CCOc1ccc(NC(=O)CSc2nnc(NC(=O)Nc3ccccc3)s2)cc1
 : 119.1	84.8	95.3	nt
> CCc1ccc2nc(SCC(=O)N3CC(=O)Nc4ccccc43)c(C#N)cc2c1
 : 67.6	91.7	103.3	4.4
> CC1=C(c2ccc(C)cc2)S(=O)(=O)N(Cc2ccc(C(=O)Nc3ccc(F)cc3C)cc2)C1=O
 : 94.8	95.8	104.5	nt
> COc1ccc(C2CC(=O)C3=C(C2)Nc2ccccc2NC3c2cc(OC)c(OC)cc2Br)cc1 (stereo not given)
 : nt	nt	95.3	-28.9
> CCn1cc(-c2ccccc2)c(C(=O)O)c1C
 : 105.4	83.9	101.8	nt
> Cc1ccc(NC(=O)c2c(C(=O)Nc3ccccc3)sc3nc(C)cc(=O)n23)c(C)c1
 : 94.1	72.9	97.4	3.6
> CN1CCN(C(CNC(=O)c2ccc(F)cc2)c2ccc(N(C)C)cc2)CC1 (stereo not given)
 : nt	nt	102.2	-20.1
> CN(C(=O)Cn1c(=O)n(-c2ccccc2)c(=O)c2c3c(sc21)CCC3)c1ccccc1
 : 93.1	86.3	99.0	-3.3
> CCCNC(=O)Cc1c(C)nc2nc(-c3ccc(C(C)(C)C)cc3)nn2c1C
 : nt	nt	102.7	-14.3
> COc1ccc([N+](=O)[O-])cc1NC(c1nnc(-c2ccccc2)o1)c1ccccc1F (stereo not given)
 : 96.7	87.8	124.5	nt
> CC(C)S(=O)(=O)c1oc(-c2ccc(F)cc2)nc1S(=O)(=O)c1ccc(F)cc1
 : 90.9	80.6	105.1	-19.9
> O=C(Cn1nc(C(F)F)cc1C1CC1)NCCC1=CCCCC1
 : 85.9	76.2	103.9	-3.8
> COc1ccc(-n2cc3c(c2-c2cccc(Br)c2)c(=O)n(C)c(=O)n3C)cc1OC
 : 104.5	92.0	103.4	-10.2
> Cc1ccnc(NC(=O)CCCOc2ccc(Cl)cc2Cl)c1
 : 108.2	85.0	98.1	-3.0
> COc1cc(NC(=O)c2cn(-c3ccc(-c4noc(C)n4)cc3)nc2C)cc(OC)c1
 : nt	nt	105.7	-27.8
> CCOC(=O)CSc1nc2ccccc2c(=O)n1CCc1ccc(OC)c(OC)c1
 : 113.6	105.6	106.9	nt
> Cc1ccc2c(c1)cc(C(=O)Nc1ccccc1C)n2C
 : 93.5	85.2	100.0	-38.4
> Cc1nn(-c2ccccc2)c(C)c1C(O)c1nnc(-c2ccccc2)o1 (stereo not given)
 : 90.7	90.0	nt	-8.8
> O=C(O)c1cccc(-n2cccc2C=NO)c1
 : 106.3	77.4	103.9	-20.4
> Cc1c(C(=O)NCc2ccccc2)sc2nc3n(c(=O)c12)CCC3
 : 96.5	89.0	103.5	9.3
> FC(F)(F)c1cc(-c2cccs2)nc2c1cnn2Cc1cccnc1
 : 91.6	103.5	nt	9.5
> Cc1nn(-c2ccccc2)nc1C(=O)Oc1cncc(Cl)c1
 : 94.4	88.2	106.3	-30.4
> O=C(Nc1ccc2c(c1)oc1ccccc12)C1CCCO1 (stereo not given)
 : 115.9	98.7	99.5	-6.7
> O=C(Nc1ccc2c(c1)nc1n2CCCCC1)c1ccccc1NS(=O)(=O)c1cccs1
 : 90.5	92.5	nt	-33.7
> COc1cccc(CNC(=O)C(CC(C)C)NS(=O)(=O)c2ccc3c(c2)oc(=O)n3C)c1 (stereo not given)
 : 86.6	96.7	100.1	11.2
